CHT block: human CHT choline transport inhibition. Q9GZV3. CHT-expressing cells, membrane potential dye, choline response; active compounds read low. B-score at 10 µM. hit rate 0.86% among 310,000. AID 488975;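 active means B-score over 3 SD under the library average, and starting fluorescence ratio not unusually high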;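 further: choline stimulus applied at its EC90 after an EC20 pre-addition; B-score computed on integrated fluorescence ratio after choline addition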
Target sequence (Q9GZV3 whole entry, looked up): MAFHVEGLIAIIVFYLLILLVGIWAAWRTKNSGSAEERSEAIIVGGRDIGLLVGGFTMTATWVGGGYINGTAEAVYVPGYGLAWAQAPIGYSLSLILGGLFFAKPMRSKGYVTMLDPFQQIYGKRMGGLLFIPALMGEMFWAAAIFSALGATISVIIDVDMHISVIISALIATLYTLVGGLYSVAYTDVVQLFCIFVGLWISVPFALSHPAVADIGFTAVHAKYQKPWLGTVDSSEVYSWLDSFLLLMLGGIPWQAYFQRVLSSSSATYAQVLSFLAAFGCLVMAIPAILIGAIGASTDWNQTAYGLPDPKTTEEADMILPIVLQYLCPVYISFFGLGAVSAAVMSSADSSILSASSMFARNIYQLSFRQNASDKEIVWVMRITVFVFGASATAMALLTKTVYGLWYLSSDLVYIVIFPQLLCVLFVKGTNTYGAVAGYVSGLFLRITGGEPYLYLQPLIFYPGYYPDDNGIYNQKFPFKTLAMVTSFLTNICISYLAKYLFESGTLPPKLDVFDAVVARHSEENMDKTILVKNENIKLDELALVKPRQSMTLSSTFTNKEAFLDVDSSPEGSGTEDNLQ
Calls only; i = inactive.

SMILES	CHT block
O=C(c1cc(-c2ccc(Cl)cc2)nc2ccccc12)N1CCC1	i
O=C(O)c1ccc(-n2cccn2)c([N+](=O)[O-])c1	i
CCOC(=O)N1CCN(CC(O)COCC2=CCC3CC2C3(C)C)CC1 (stereo not given)	i
Cc1c(C(=O)/C=C/N(C)C)nnn1-c1ccc(Cl)cc1Cl	i
O=C(Nc1cccc([N+](=O)[O-])c1)Nn1cnnc1	i
COc1ccccc1N1CCN(S(=O)(=O)/C=C/c2ccccc2)CC1	i
C/C=C/c1ccc(OCCCn2cncn2)c(OC)c1	i
O=c1[nH]c(CO)nc2c1oc1ccccc12	i
CCCN1CCN(S(=O)(=O)c2cc3c(cc2C)NC(=O)CO3)CC1	i
C=CCNC(=O)C1CCN(C(=O)c2ccc(-c3ccccc3)cc2)CC1	i
COC(=O)[C@H](Cc1ccccc1)NC(=O)[C@@H]1C[C@H]1[C@@H](NC(=O)OCc1ccccc1)c1ccccc1	i
CCN(CC)S(=O)(=O)c1ccc(N2CCCC2)c(NC(=O)c2c(-c3ccccc3)noc2C)c1	i
Nc1nc(NCC2CCCO2)nc(Nc2ccc(Cl)cc2)c1[N+](=O)[O-] (stereo not given)	i
Cc1ccc(O)c(NC(=O)c2onc(C)c2Cl)c1	i
CCO/C(C)=C1\N=C(c2ccc(Cl)cc2)OC1=O	i
N#CC1CN(C(c2ccccc2)c2ccccc2)C1	i
CCc1ccc(NC(=O)CSc2nnc(Cc3cccn3C)n2-c2ccc(OC)cc2)cc1	i
CCCCSc1nc2c(c(C(F)(F)F)c1C#N)CCC2	i
Cc1ccc(-c2nnn(CC(=O)N(CC(=O)NC3CCCC3)c3ccc(F)cc3)n2)o1	i
CCOC(=O)N1CCN(CC(=O)Nc2ccc(F)cc2F)CC1	i
COc1ccc(-c2cn3ccccc3n2)cc1[N+](=O)[O-]	i
COc1ccc(-n2nc([N+](=O)[O-])c(=NCCc3ccccc3)n2O)cc1	i
COc1ccccc1N(CC(=O)NC1CCCCC1)S(C)(=O)=O	i
CC(Oc1ccccc1)C(=O)N1CCN=C1SCc1ccc(F)cc1 (stereo not given)	i

Reformatted in markdown: 16 of the compounds above
| molecule | CHT block |
| --- | --- |
| COc1ccccc1N1CCN(S(=O)(=O)/C=C/c2ccccc2)CC1 | i |
| C/C=C/c1ccc(OCCCn2cncn2)c(OC)c1 | i |
| O=c1[nH]c(CO)nc2c1oc1ccccc12 | i |
| CCCN1CCN(S(=O)(=O)c2cc3c(cc2C)NC(=O)CO3)CC1 | i |
| C=CCNC(=O)C1CCN(C(=O)c2ccc(-c3ccccc3)cc2)CC1 | i |
| COC(=O)[C@H](Cc1ccccc1)NC(=O)[C@@H]1C[C@H]1[C@@H](NC(=O)OCc1ccccc1)c1ccccc1 | i |
| CCN(CC)S(=O)(=O)c1ccc(N2CCCC2)c(NC(=O)c2c(-c3ccccc3)noc2C)c1 | i |
| Nc1nc(NCC2CCCO2)nc(Nc2ccc(Cl)cc2)c1[N+](=O)[O-] (stereo not given) | i |
| Cc1ccc(O)c(NC(=O)c2onc(C)c2Cl)c1 | i |
| CCO/C(C)=C1\N=C(c2ccc(Cl)cc2)OC1=O | i |
| N#CC1CN(C(c2ccccc2)c2ccccc2)C1 | i |
| CCc1ccc(NC(=O)CSc2nnc(Cc3cccn3C)n2-c2ccc(OC)cc2)cc1 | i |
| CCCCSc1nc2c(c(C(F)(F)F)c1C#N)CCC2 | i |
| Cc1ccc(-c2nnn(CC(=O)N(CC(=O)NC3CCCC3)c3ccc(F)cc3)n2)o1 | i |
| CCOC(=O)N1CCN(CC(=O)Nc2ccc(F)cc2F)CC1 | i |
| COc1ccc(-c2cn3ccccc3n2)cc1[N+](=O)[O-] | i |

(more compounds)
SMILES	CHT block
O=C(CN1CCOCC1)NCCc1ccccc1	i
CCCCNS(=O)(=O)c1ccc(S(=O)(=O)NCc2ccncc2)cc1	i
CN1N=C(C(=O)N2CCCC(C(=O)c3cccc(C(F)(F)F)c3)C2)CCC1=O (stereo not given)	i
CCOC(=O)CC(c1ccc([N+](=O)[O-])cc1)n1c(C)ccc1C (stereo not given)	i
Nc1ccc(C(=O)OCC(=O)Nc2ccc([N+](=O)[O-])cc2C(F)(F)F)cc1	i
COCC1CCN(Cc2cn[nH]c2-c2cc(OC)c(OC)c(OC)c2)CC1	i
C/C(=N\S(=O)(=O)c1ccc(C)cc1)N(C)C	i
O=C(NCc1cccnc1)C(=O)Nc1nc(-c2ccccc2)cs1	i
Cn1c(C(=O)N2CCN(c3ccc(F)cc3)CC2)cc2ccccc21	i
Cn1nnc(NC(=S)NC(=O)Cc2ccccc2)n1	i
CC(C1CCN(Cc2nc(C3CC3)no2)CC1)N1CCOCC1 (stereo not given)	i
COc1cc(/C=N/NC(=O)Nc2ccccc2)ccc1OCCOc1ccccc1C	i
COc1ccc(-c2nc3ccccc3c(=O)n2-c2c(C)n(C)n(-c3ccccc3)c2=O)cc1	i
CCOC(=O)CC1=CC(C)(CC(=O)OCC)C(C#N)(C#N)C(N)=C1C#N (stereo not given)	i
O=c1oc2ccccc2c(Nc2ccccc2)c1[N+](=O)[O-]	i
COC(=O)C1CCN(C(=O)C(C)Oc2ccc(Cl)cc2Cl)CC1 (stereo not given)	i
CNC(=O)Nc1cccc(NC(=O)NC)n1	i
Nc1nc(Nc2ccccc2F)nc(N2CCCC2)c1[N+](=O)[O-]	i
CC(NC(=O)c1ccc(Br)o1)C1CC2CCC1C2 (stereo not given)	i
O=C1C2C3C=CC(CC3)C2C(=O)N1c1cccc(C(F)(F)F)c1 (stereo not given)	i
Cc1ccc(C(c2c(C)n(C)n(-c3ccccc3)c2=O)c2c(C)n(C)n(-c3ccccc3)c2=O)s1	i
O=C(CNC(=O)Cc1ccccc1)NCC(=O)N1CCCCC1	i
Cn1cc(CN2CCCCC2CO)c(-c2ccc(Oc3ccccc3)cc2)n1 (stereo not given)	i
Fc1ccccc1CSc1nnc(-c2cnccn2)n1Cc1ccco1	i
COCC(=O)Nc1nnc(SCC(=O)N2CCCCC2)s1	i
N#Cc1c(-c2ccco2)nc(SCc2ccc(F)cc2)[nH]c1=O	i
COc1ccc(C(=O)Nc2ccccc2C(=O)Nc2cc(C)ccn2)cc1	i
CCCc1ccc2oc(C(=O)N(C)CCn3ccnc3C)c(C)c2c1	i
O=C(O)c1cccc(Cl)n1	i
O=c1oc2cc(O)ccc2c2oc3cc(O)ccc3c12	i
CC(C)(C)[C@H]1C=C(C(=O)N2CCN(Cc3ccccc3)CC2)O[C@@H](OCc2ccc(CO)cc2)C1	i
CN(C)c1cccc(C(=O)n2cc(C(=O)c3cc(F)ccc3O)cn2)c1	i
C=CCOc1ccc(CNC(C)(C)C)cc1OC	i
O=C(CSc1nnc(-c2ccc(F)cc2)n1-c1ccccc1)NCCN1C(=O)CSC1=O	i
Cc1ccc(NC(=O)c2ccc(S(=O)(=O)N3CCC(C)CC3)cc2)cc1	i
Cc1ccc(NS(=O)(=O)c2ccc(C(=O)NCC3CCCO3)cc2)cc1 (stereo not given)	i
O=C(CC1C(=O)N(c2ccc(Cl)cc2)C(=S)N1CCc1ccncc1)Nc1ccc(F)cc1 (stereo not given)	i
CCOC(=O)c1ccc(-n2c(CCC(=O)O)ccc2-c2cccs2)cc1	i
CCOC(=O)c1c(NC(=O)CC2Nc3cc(C)c(C)cc3NC2=O)sc(C)c1C (stereo not given)	i
O=C(NCc1nc2ccccc2[nH]1)C1=C[C@H](c2ccccc2)C[C@H](OCc2ccc(CO)cc2)O1	i
COc1ccccc1Nc1nc(N)nc(CN2CCCCCC2)n1	i
Cc1nn(C)c(Cl)c1CN1CCC(CO)(CC2CCCCO2)CC1 (stereo not given)	i
CC(=O)N/C(=C\c1ccc(F)cc1)C(=O)NC(Cc1c[nH]c2ccccc12)C(=O)O (stereo not given)	i
CN(C)/N=C/c1ccc(OC(=O)c2cccc([N+](=O)[O-])c2)cc1	i
CCOc1ccc(-c2cn(-c3cccc(SC)c3)c(=O)[nH]2)cc1	i
CC1CCC2(CC1)NC(=O)N(CC(=O)c1ccc(Cl)s1)C2=O (stereo not given)	i
CCCc1c(NC(=O)Nc2ccc(F)cc2)cnn1-c1ccc(Cl)cc1	i
Cc1cnc(NC(=O)CN2CCN(c3ccccc3F)CC2)s1	i
CC(=O)OCc1c(C)cc(C)c(/C=C(/C#N)C(N)=O)c1C	i
O=C(O)CCCCCN1C(=O)/C(=C\c2ccncc2)SC1=S	i
COCCNc1nc(C)c(C(C)=O)s1	i
S=C(c1ccc(-c2ccc(Cl)cc2)o1)N1CCCCC1	i
O=C(/C=C/c1cccs1)c1ccc(Br)cc1	i
COc1ccc(-n2c(-c3ccco3)nc3c(cnn3-c3ccc(C)cc3)c2=O)cc1	i
CCOc1ccc(NC(=O)CC2C(=O)N(c3ccc(OC)cc3)C(=O)N2Cc2ccc(OC)cc2)cc1 (stereo not given)	i
O=C(O)C1CCN(C(=O)COc2ccc3c4c(c(=O)oc3c2)CCC4)CC1	i
Cc1cc([N+](=O)[O-])nn1CC(=O)NCc1ccco1	i
Cc1ccc(CNC(=O)c2sccc2-n2cccc2)cc1	i
Cc1cccc(NC(=O)c2ccc(COc3ccccc3)o2)n1	i
Cc1ccc(O)c(C(=O)c2cnc3c(c2)c(-c2ccc(F)cc2)c(C#N)c(=O)n3C)c1	i
The list goes on:
SMILES	CHT block
COc1ccc2oc(=N)c(C(=O)NCc3ccccc3)cc2c1	i
COc1cccc(C(=O)O/N=C(\N)c2ccc([N+](=O)[O-])cc2)c1OC	i
CCCN1C(=O)/C(=c2\sc3nc(=O)c(Cc4ccc(C)cc4)nn3c2=O)c2ccccc21	i
CCC(C)NC(=O)C1CCC(CNS(=O)(=O)c2ccc3c(c2)CC(C)N3C(C)=O)CC1 (stereo not given)	i
COc1cccc(NC(=O)c2sc(NC(=O)c3ccncc3)nc2C)c1	i
Cc1ccc(NC(=O)CSCC#N)cc1Cl	i
C=CCn1c(SCn2nnc3ccccc3c2=O)nc2scc(-c3cccs3)c2c1=O	i
CN1C[C@@H]2C(c3ccccc3)C3(c4ccccc4)CC2(C3)[C@H]1c1ccccc1 (stereo not given in full)	i
O=C(c1ccccc1[N+](=O)[O-])N1CCN(c2ccc(N3CCOCC3)nn2)CC1	i
Cn1c(=O)c2c(ncn2CC(=O)Nc2ccc(N3CCOCC3)cc2)n(C)c1=O	i
O=C(Cn1cnc2c(nnn2-c2ccccc2)c1=O)NCc1ccc(F)cc1	i
CCOc1cc2[nH]c(=S)n(CCCCC(=O)NCc3ccco3)c(=O)c2cc1OCC	i
CCCN1CCN(C(=O)Nc2ccc(OCC)cc2)CC1	i
COc1ccc(CNC(=O)CN(Cc2ccc(OC)cc2)C(=O)c2csnn2)cc1	i
CCOc1cccc2sc(=NC(=O)CCS(=O)(=O)c3ccccc3)n(CC)c12	i
O=c1[nH]c2ccccc2nc1CCc1ccccc1	i
O=C(O)COCCN1CCN(C(c2ccccc2)c2ccc(Cl)cc2)CC1 (stereo not given)	i
COC(=O)C(C(=O)OC)c1ncc(C(F)(F)F)cc1Cl	i
COCCCNC(=O)Cn1c(=O)n(CC(=O)N2CCCCC2)c(=O)c2sccc21	i
CC(=O)Nc1cccc(N/C(N)=N/c2nc(C)cc(C)n2)c1	i
Clc1ccc(-c2cnc3n2CCC3)cc1	i
CCOC(=O)CN1C(=O)N[C@@H](c2cccc(C(F)(F)F)c2)[C@@H](C(=O)OC)[C@H]1C	i
COc1ccc2nc(Nc3nc(CSc4nc5ccccc5s4)cc(=O)[nH]3)nc(C)c2c1	i
C=CCNC(=O)Nc1ccc(F)cc1F	i
CCC/C=C1/CCCOC(C(=O)NCc2cc(C)n(C)n2)(C(F)(F)F)C1 (stereo not given)	i
CCc1ccc(CNC(=O)Cn2nc(-c3ccccc3)ccc2=O)cc1	i
CCc1nnc(NC(=O)CN2CCN(C(=O)c3ccccc3)CC2)s1	i
CC(=O)c1cccc(N(CC(=O)N2CCCCC2)S(C)(=O)=O)c1	i
Fc1ccc(-c2csc(Nc3ccccn3)n2)c(F)c1	i
O=c1[nH]c2ccccc2n1CCC1CCCCC1	i
Cc1ccccc1CN1C(=O)c2ccccc2S1(=O)=O	i
CCC1CCCCN1c1cc(C)nc2cc(-c3cccc(C)c3)nn12 (stereo not given)	i
CCSc1nnc(NC(=O)c2cc(OC)c(OC)c(OC)c2)s1	i
Cn1c(SCC(=O)O)nnc1-c1cccc(NC(=O)c2cccc3ccccc23)c1	i
COc1cc(NC(=O)c2ccccc2)ccc1NC(=O)Cc1ccccc1	i
O=C(NCc1ccc2c(c1)OCO2)c1cccc(C(=O)NCc2ccc3c(c2)OCO3)c1	i
Cc1cccc(C)c1N1CC(=O)N(c2c(C)cccc2C)CC1=O	i
CC(C)N1CC(C(=O)Nc2ccc(Cl)c(Cl)c2)CC1=O (stereo not given)	i
O=C(NNC(=O)c1nn(-c2ccc(F)cc2)ccc1=O)c1ccc(Cl)cc1	i
CCCCCCn1c(SCC(=O)c2c(N)n(C)c(=O)n(C)c2=O)nc2ccccc21	i
CC(C)SCCCOc1ccc(C(C)(C)C)cc1	i
Cc1ccc(NC(=O)CCCN2C(=S)NC(C)(C)CC2C)cc1 (stereo not given)	i
CCN(CC(=O)Nc1c(F)cccc1F)C(=O)CCNC(=O)c1ccccc1OC	i
O=C(Nc1ccc(Cl)cc1)Nc1nnc(CSCc2ccccc2Cl)s1	i
CCS(=O)(=O)N1CCC(C(=O)N2CCN(c3ccccc3)CC2)CC1	i
Cc1ccc2nc(NC(=O)COC(=O)c3ccco3)sc2c1	i
CC(=O)N1c2ccc(S(=O)(=O)N3CCC(C(=O)NCc4ccccc4)CC3)cc2CC1C (stereo not given)	i
CC1CCCCN1C(=O)Cn1c(=O)n(CCC(=O)NCc2ccco2)c(=O)c2sccc21 (stereo not given)	i
CC(=O)c1cccc(NC(=O)CN(c2ccc(C)cc2)S(=O)(=O)c2cccc3nonc23)c1	i
O=C(NCC(=O)N(CC1CCCO1)C(C(=O)NC1CCCCC1)c1cccnc1)c1cccs1 (stereo not given)	i
COc1ccc(OC)c(-c2csc(N3CCC(c4ccccc4)CC3)n2)c1	i
Cc1cc(C)c2c(CN3CC(C)OC(C)C3)cc(=O)oc2c1C (stereo not given)	i
Cc1cc(Cl)c2oc(C(=O)N(C)CCCCN3CCOCC3)c(C)c2c1	i
Cc1ccn2c(=O)c(NC(=O)c3cccs3)c(C)nc2c1	i
O=C1c2ccccc2C(=O)N1CC(O)CN1CCOCC1 (stereo not given)	i

High-throughput results: PubChem BioAssay, Johns Hopkins Ion Channel Center

An excerpt; most or all hits stand in other tables.
